High-throughput results: PubChem, several laboratories
AP complement = orthogonal test for alternative complement pathway inhibitors; inhibition, % at 5 µM; Human serum alternative complement pathway, LPS-coated ELISA, C3 deposition; tested in compound mixtures; 62,000 tested, 0.08% active; AID 1235;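 active = inhibition above 30% in each of the two pooled mixtures holding the compound, so the lower value exceeds 30%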;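 also: 0% = serum in Mg-EGTA without compound and 100% = EDTA serum blank; some compounds past the cut are filed as inactive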
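Medium: diluted human serum in Mg2+-EGTA GVB++. Assay system: human serum complement alternative pathway, C3 deposition onto LPS. Also added: Plate-bound LPS. Technique: Anti-C3 ELISA, OD 450 nm. Measure: percent inhibition. Incubation: 1 h at 37 °C. Dosing: 5 µM each compound, pools of ten, 50 µM per pool.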
Hsp90 block = displaces geldanamycin probe from tumor Hsp90; P07900; NCI-N417 lysate Hsp90, Cy3B-geldanamycin FP displacement; inhibition, % at 30 µM; 64,000 tested, 0.35% active; AID 429;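 active = inhibition above 50%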;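 also: 0% = tracer plus lysate wells and 100% = tracer alone without lysate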
DUSP1 inh = inhibitors of human MKP-1 phosphatase; P28562; recombinant MKP-1, OMFP hydrolysis fluorescence; inhibition, %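 (compounds tested at a single concentration somewhere between 10 and 100 µM)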; 65,000 tested, 0.15% active; AID 374;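 active = inhibition above about 50%, limit read from the data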;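 also: 0% = DMSO max control wells and 100% = wells with enzyme stopped by NaOH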
Target sequence (P28562 whole entry, looked up): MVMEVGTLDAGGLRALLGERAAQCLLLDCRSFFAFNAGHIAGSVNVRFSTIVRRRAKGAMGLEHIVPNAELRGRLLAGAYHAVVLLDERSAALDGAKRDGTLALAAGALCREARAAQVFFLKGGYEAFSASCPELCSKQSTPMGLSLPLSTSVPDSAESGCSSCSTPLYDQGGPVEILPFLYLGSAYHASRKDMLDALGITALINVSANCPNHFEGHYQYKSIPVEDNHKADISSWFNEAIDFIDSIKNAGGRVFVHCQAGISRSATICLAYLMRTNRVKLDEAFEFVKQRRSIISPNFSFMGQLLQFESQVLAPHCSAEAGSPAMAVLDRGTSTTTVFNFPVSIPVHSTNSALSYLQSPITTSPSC
Cdc25B block = inhibitors of human Cdc25B phosphatase | P30305 | recombinant Cdc25B, OMFP fluorescence Ex485/Em525 | inhibition, %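 (compounds tested at 10 µM final in the well)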 | 65,000 tested, 0.1% active | AID 368; in the data active = inhibition above about 50%
Abs 340nm = compounds absorbing at 340 nm. compound absorbance at 340 nm, fold over control. fold change at 10 µM. 65,000 tested, under 10 active;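 active = at 10 µM dose, initial 340 nm absorbance at least 2 fold that of control wells; inactive = change under 2 fold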;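 also: initial absorbance extrapolated from kinetic A340 decline of NADH oxidation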
MMP13 inh = MMP13 (human) collagenase inhibition; inhibition, % at 4 µM; 65,000 tested, 0.07% active; AID 570; MMP-13 fTHP FRET cleavage, Mca fluorescence; P45452;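 active = inhibition above the mean of compound-free control plate wells plus 3 SD, cut at about 14% in these data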;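 also: 0% = DMSO wells and 100% = wells with reference MMP-13 inhibitor after basal subtraction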
* = called active by the depositor; i = inactive; x = no result given; [ ] = another dose, or the depositor's remark. An excerpt, so the mix of outcomes need not match the whole.

SMILES | AP complement | Hsp90 block | DUSP1 inh | Cdc25B block | Abs 340nm | MMP13 inh
CCOC(=O)N1CCN(C(=O)CN(C2CCCCC2)S(C)(=O)=O)CC1 | 19 | -3 | -2 | -16 | 1 | 6
CCCCn1nnnc1NCc1cccs1 | 5 | -10 | -13 | -13 | 1 | 3
O=C(Nc1ccccc1)C1=C(O)CC(c2ccco2)CC1=Nc1ccccc1 (centres undefined) | 17 | 1 | -4 | -10 | 1.1 | -3
C=CCSc1n[nH]c(-c2ccc(OC)cc2)n1 | -4 | -5 | 1 | 0 | 0.99 | 2
Cc1cc2oc(=O)c3c(c2cc1OC(=O)c1ccco1)CCCC3 | -9 | -1 | 2 | -7 | 1 | 2
COc1ccc(OC)c(-n2c(-c3cccc(O)c3)n[nH]c2=S)c1 | 4 | -2 | 1 | -5 | 1 | -1
C=CCNC(=O)C1CC(c2cccc(OC)c2)=NO1 (centres undefined) | 17 | 2 | -4 | -12 | 1 | -1
COC(=O)c1ccc(C2C(C#N)=C(N)Oc3cc(C)n(C)c(=O)c32)cc1 (centres undefined) | -3 | 1 | -11 | -12 | 0.98 | 7
Cc1cc(C)cc(N(CC(=O)N2CCC(C)CC2)S(C)(=O)=O)c1 | 1 | -5 | 0 | -3 | 1.1 | 5
CCNC(=O)CC1C(=O)N(c2ccc(C)cc2)C(=O)N1Cc1ccccn1 (centres undefined) | 29 | 2 | 12 | -2 | 1 | 1
O=C1CC(c2cccc(Br)c2)C2=C(CCCC2=O)N1 (centres undefined) | -3 | -3 | 8 | -13 | 0.98 | -11
COc1ccc2c(C)cc(=O)oc2c1C | 1 | -1 | -3 | -8 | 1.1 | -71[fluorescence artefact?]
COCCCN1C(=O)C(=O)/C(=C(/O)c2ccc3c(c2)OCCO3)C1c1ccc(C(=O)OC)cc1 (centres undefined) | -4 | -9 | 4 | 0 | 1.1 | -1
CCNC(=O)CC1C(=O)N(c2ccccc2)C(=O)N1Cc1ccc(OC)cc1 (centres undefined) | 2 | -2 | -1 | -3 | 0.98 | 1
COc1ccccc1C(=O)n1nc(-c2ccccc2)nc1N | 9 | 2 | 8 | -2 | 0.99 | 5

Arranged by length of the SMILES (highest first): part of the list above
SMILES | AP complement | Hsp90 block | DUSP1 inh | Cdc25B block | Abs 340nm | MMP13 inh
CCNC(=O)CC1C(=O)N(c2ccc(C)cc2)C(=O)N1Cc1ccccn1 (centres undefined) | 29 | 2 | 12 | -2 | 1 | 1
Cc1cc(C)cc(N(CC(=O)N2CCC(C)CC2)S(C)(=O)=O)c1 | 1 | -5 | 0 | -3 | 1.1 | 5
COc1ccc(OC)c(-n2c(-c3cccc(O)c3)n[nH]c2=S)c1 | 4 | -2 | 1 | -5 | 1 | -1
COc1ccccc1C(=O)n1nc(-c2ccccc2)nc1N | 9 | 2 | 8 | -2 | 0.99 | 5
CCCCn1nnnc1NCc1cccs1 | 5 | -10 | -13 | -13 | 1 | 3

Arranged by value in AP complement (low to high): 5 of the compounds above.
Compound	AP complement
C=CCSc1n[nH]c(-c2ccc(OC)cc2)n1	-4
O=C1CC(c2cccc(Br)c2)C2=C(CCCC2=O)N1 (centres undefined)	-3
CCNC(=O)CC1C(=O)N(c2ccccc2)C(=O)N1Cc1ccc(OC)cc1 (centres undefined)	2
CCOC(=O)N1CCN(C(=O)CN(C2CCCCC2)S(C)(=O)=O)CC1	19
CCNC(=O)CC1C(=O)N(c2ccc(C)cc2)C(=O)N1Cc1ccccn1 (centres undefined)	29

Going on with the list.
SMILES | AP complement | Hsp90 block | DUSP1 inh | Cdc25B block | Abs 340nm | MMP13 inh
Cc1[nH]c(=O)[nH]c(=O)c1S(=O)(=O)NCCOC12CC3CC(CC(C3)C1)C2 | 4 | 2 | 3 | 15 | 1 | 4
Cc1cc(C)c2nc(N3CCCC3)c(C#N)cc2c1 | -15 | 4 | -6 | -8 | 1 | -56
CC1CCN(C(=O)CSc2nnc(-c3ccc(S(=O)(=O)N4CCOCC4)cc3)n2C)CC1 | -10 | -1 | -7 | 1 | 0.99 | -15
O=C(NCCN1CCOCC1)c1cc2c(=O)n3ccccc3nc2n1Cc1ccccc1 | 6 | -4 | 36 | -19 | 1.1 | -352[fluorescence artefact?]
CCCC(=O)Nc1ccc(C(=O)n2nnc3ccccc32)cc1 | 9 | -13 | -17 | -4 | 1 | 0
Cc1ccc(-c2cnc(NC(=O)CCC(=O)N3CCCCC3)n2C)cc1 | -10 | 4 | 24 | 10 | 1 | -1
CCOc1ccccc1-c1nc(-c2ccc(NC(=O)c3ccc(Br)o3)cc2)no1 | -6 | 0 | 11 | -2 | 1.1 | 0
CCOC(=O)c1cc2nc(Nc3ccc(OC)cc3)sc2s1 | 14 | -21 | 23 | -2 | 1.1 | -55
CSc1nc(-c2ccco2)nn1C(=O)c1ccco1 | 24 | 7 | -2 | -4 | 1 | 1
COc1ccc(C(C#N)Nc2ccccc2OC)cc1 (centres undefined) | -2 | x | 1 | 3 | 1.1 | 8
CCOC(=O)N1CCN(C(=O)C2CCN(S(=O)(=O)CC)CC2)CC1 | 12 | 1 | 5 | -2 | 0.99 | 3
O=C(c1ccc2c(c1)OCO2)N1CCN=C1SCc1ccccc1 | 32 | 1 | -10 | 6 | 1.1 | 6
CC1=C(C(=O)Nc2ccccc2)C(c2cccnc2)n2nc(-c3cccnc3)nc2N1 (centres undefined) | 10 | -4 | -11 | 8 | 1 | 0
COCCNC(=O)COc1ccccc1Cl | -12 | -1 | 10 | -2 | 1 | 6
COCCCn1c(=N)c(C(=O)NCC2CCCO2)cc2c(=O)n3ccccc3nc21 (centres undefined) | -9 | -5 | -5 | -10 | 1 | i[fluorescence artefact?]

Fetched by compound from above, 4 records:
SMILES | AP complement | Hsp90 block | DUSP1 inh | Cdc25B block | Abs 340nm | MMP13 inh
COc1ccc(OC)c(-n2c(-c3cccc(O)c3)n[nH]c2=S)c1 | 4 | -2 | 1 | -5 | 1 | -1
Cc1[nH]c(=O)[nH]c(=O)c1S(=O)(=O)NCCOC12CC3CC(CC(C3)C1)C2 | 4 | 2 | 3 | 15 | 1 | 4
CCOc1ccccc1-c1nc(-c2ccc(NC(=O)c3ccc(Br)o3)cc2)no1 | -6 | 0 | 11 | -2 | 1.1 | 0
CCCC(=O)Nc1ccc(C(=O)n2nnc3ccccc32)cc1 | 9 | -13 | -17 | -4 | 1 | 0
